Screening results as filed in PubChem.
NPYLR7 agonist: mosquito NPYLR7 agonism | 270,000 tested, 0.15% active | activation, % at 10 µM | HEK293T NPYLR7/Galpha15, GCaMP6s calcium fluorescence; in the data active means activation above about 40%;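 further: 0% = vehicle and 100% = reference agonist at the receptor; some compounds past the cut are filed as inactive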
NPYLR7 agonist max-min: recorded beside NPYLR7 agonist, whose call it bears; activation, %; measured here: Max-Min RFU normalised activation; some inactives read as strong as hits;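 span of the calcium signal over five minutes; 0% = vehicle and 100% = native peptide agonist; compound fluorescence can raise it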
* marks the source's active call; other numbers are inactive results; & = joins results of further samples. Not all compounds are listed; count on the stated rates, not on these rows.

SMILES | NPYLR7 agonist | NPYLR7 agonist max-min
O=C(c1cncc(-c2ccc3c(c2)OCO3)n1)N1CCOCC1 | 13 | 11
CCOC(=O)CSCC(=O)Nc1c(C)nn(-c2ccc(C)cc2)c1C | 4 | 2
Cc1cc(=O)[nH]c(-n2nc(-c3cccs3)cc2NC(=O)COc2ccc(Cl)cc2Cl)n1 | 1 | 0
COCCN(CC1CNCCO1)C(=O)c1ccc(C)cc1 (configuration not stated) | 21 | 9
CN(C)CCCn1ccc2c(nnc3c(-c4ccccc4)cnn32)c1=O | 5 | 4
COc1ccc(C(C2Sc3ncnn3C2=O)N2CCCCC2)cc1OC (configuration not stated) | 5 | 3
Cc1ccccc1OCC(=O)N1CCC(n2nc(-c3ccccc3)cc2-c2ccccc2)CC1 | -4 | -9
N#CC(=Cc1ccsc1)C(=O)NCc1ccco1 | 3 | 2
COc1cc(-c2cc(C(=O)N3CCCCC3C)c3ccccc3n2)cc(OC)c1OC (configuration not stated) | 4 | 1
O=S(=O)(Nc1cccc(C2OCC3(CO2)CC2C=CC3C2)c1)c1ccccc1 (configuration not stated) | -7 | -9
CCc1ccccc1NC(=O)CN1CCN(C(=O)c2[nH]c3c(c2C)C(=O)CCC3)CC1 | -3 | -2
CC(NS(=O)(=O)c1cccs1)C(=O)N(C)CCC#N (configuration not stated) | 1 | -1
CCN(CC)C(=O)CSc1nc(-c2ccc(Cl)cc2)nc2c1Cc1c(CO)cnc(C)c1O2 | 4 | 7
COc1ccccc1CNC(=O)Cn1cnc2c([nH]c3ccc(C)cc32)c1=O | 3 | -1
c1ccc(CSc2ncc(C3NCCc4[nH]cnc43)cn2)cc1 (configuration not stated) | 14 | -1
O=C1c2c(Cl)c(Cl)c(Cl)c(Cl)c2C(=O)N1c1ccc(-c2nc3ccccc3o2)cc1 | 31 | 10
c1coc(-c2noc(CNCc3ccccc3Cn3cccn3)n2)c1 | 1 | -1
CNC(=O)CSc1cn(CC(=O)N2CCCCCC2)c2ccccc12 | -7 | -13
Nc1cc(-c2cccc(Cl)c2)nn1-c1ccc(C(=O)N2CCCC3CCCCC32)cc1 (configuration not stated) | -6 | -18
Nc1n[nH]c(C(=O)N2CCCC2)n1 | 2 | 36
Cc1cccnc1N1CCN(Cc2cccc(Cn3cccn3)c2)CC1 | 10 | 9
Cc1cccc(-n2nc(C)c3c(C(F)(F)F)cc(C)nc32)c1 | 0 | -1
COc1cc(-c2nnc(CSc3nncs3)o2)cc(OC)c1OC | 11 | 10
CCCCN(CC(=O)N(CCc1c[nH]c2ccccc12)Cc1ccc(F)cc1)C(=O)Nc1c(C(C)C)cccc1C(C)C | -8 | 5
CN(CC(=O)N=c1sc2ccccc2n1C)S(=O)(=O)c1cccs1 | -2 | -3
CC(C)(C)NC(=O)N1CCn2cccc2C1c1ccc(Br)cc1 (configuration not stated) | 4 | 2
CC(CCc1ccc2c(c1)OCO2)=NNC(=S)NC(C)C | -7 | -6
O=C1C2C3C=CC(C3C3=CCCC3)C2C(=O)N1c1cccc([N+](=O)[O-])c1 (configuration not stated) | 6 | 3
CC(c1cccc(-c2ccc(C(=O)O)o2)c1)N(C)C (configuration not stated) | 14 | 9
O=C(NNC(=O)c1cc(Cl)ccc1O)c1ccc(S(=O)(=O)NCc2ccco2)cc1 | -4 | -3
O=C(Nc1ccc(NS(=O)(=O)Cc2ccc(F)cc2)cn1)C1CC1 | -3 | -5
O=C(NC1=NCCCCC1)c1ccccc1 | 16 | 6
Cc1ccccc1CN(C)C(=O)C(C)[n+]1cccc(O)c1 (configuration not stated) | 4 | 2
O=C(CSc1nc(-c2cccc(Cl)c2)cc(=O)[nH]1)Nc1oncc1-c1ccccc1 | 0 | -2
CCOC(=O)c1cccnc1Oc1cccc(NC(=O)/C=C/c2ccoc2)c1 | -4 | -10
CCc1ccc(S(=O)(=O)N2CCN(c3ccc(-c4ccco4)nn3)CC2)s1 | 0 | 16
CNC(=O)NC(=O)CSc1ccccn1 | -9 | -4
Cc1ccc(CN(C)S(=O)(=O)N(C)CCC#N)cc1 | 8 | 7
CCN1CCN(Cc2nc3c(c(=O)n(C)c(=O)n3C)n2CC(N)=O)CC1 | 7 | 1
O=C(NCC1Cc2ccccc21)Nc1ccn(CCc2ccncc2)n1 (configuration not stated) | 1 | 0

One compound at a time, from the list above. Order of values: NPYLR7 agonist	NPYLR7 agonist max-min
Listed for O=C(Nc1ccc(NS(=O)(=O)Cc2ccc(F)cc2)cn1)C1CC1 → -3	-5
Listed for Cc1ccccc1CN(C)C(=O)C(C)[n+]1cccc(O)c1 (configuration not stated) → 4	2
Listed for O=C(CSc1nc(-c2cccc(Cl)c2)cc(=O)[nH]1)Nc1oncc1-c1ccccc1 → 0	-2
Listed for O=C(NC1=NCCCCC1)c1ccccc1 → 16	6
Listed for CCN1CCN(Cc2nc3c(c(=O)n(C)c(=O)n3C)n2CC(N)=O)CC1 → 7	1

(cont.)
SMILES | NPYLR7 agonist | NPYLR7 agonist max-min
Cc1cc(C(=O)CN2C(=O)c3ccccc3CS2(=O)=O)c(C)[nH]1 | 9 | 7
O=C(NC1CCCCC1)c1cc(-c2cccs2)nn1-c1ccccc1Cl | 1 | 10
CN(Cc1ccsc1)C(=O)C1CCCCN1C(=O)c1cccnc1 (configuration not stated) | -1 | 28
COc1ccc(Cl)cc1NC1=NC2CS(=O)(=O)CC2S1 (configuration not stated) | -2 | -2
CCOC(=O)c1c(C)c(C(=O)CN(Cc2ccco2)C(=O)COc2ccc(Cl)cc2)c(C)n1CC | -14 | -13
Cc1cccc(C(=O)N2CCCC(OCc3ccccc3C)C2)c1 (configuration not stated) | -8 | 0
CC(C)(C)P(=NC(=O)C(F)(F)F)(N1CCCCC1)N1CCCCC1 | 1 | -3
CC(O)(CN1CCCC(c2noc(C3CC3)n2)C1)c1ccccc1 (configuration not stated) | 1 | 2
Cc1nc(-c2ccc(C(=O)N(CC#N)Cc3ccccc3)cc2)n[nH]1 | -3 | -8
COc1ccc(CC(=O)N2CCC[C@@H]2C(=O)NCCNC(=O)c2ccc(F)cc2)cc1 | 5 | 15
CCC1CN(CCC(=O)N2CCN(Cc3nccn3C)CC2)Cc2cc(OC)ccc2O1 (configuration not stated) | 8 | 7
CSc1ccc(C(=O)N2CCC(C(Cc3ccccc3)N(C)C(=O)c3ccccn3)CC2)cc1 (configuration not stated) | 13 | 6
COc1ccc(-c2nnc3ccc(OCCNC(=O)Cc4cccc(C)c4)nn23)cc1OC | 0 | 35
COc1cccc(OCCN2CCN(c3ncnc4sc5c(c34)CCCC5)CC2)c1 | 9 | 4
N=C(N)c1ccccc1 | -3&9 | -7&-12
Cc1nn(CC(C)C)c(Cl)c1CNCc1ccc(N(C)C)nc1 | 13 | 8
c1ccc(Cc2nc(-c3ccc(N4CCCCC4)nc3)no2)cc1 | 1 | 8
CCC(C(=O)N1CCC(n2cnc3ccc(C)cc32)CC1)c1ccccc1 (configuration not stated) | 2 | 2
O=C(c1cccc(F)c1)N1N=C(c2ccccc2)CC1c1ccc2nccnc2c1 (configuration not stated) | 1 | 2
CC(=O)OCC(=O)N1CCN(c2nc3nccc(-c4cccc(C(F)(F)F)c4)n3n2)CC1 | 6 | 2
COCc1cc(N2CCOCC2)nc(SCc2ccc(C(=O)NCCc3ccccn3)cc2)n1 | 0 | 1
OCc1cc(-c2ccc(-c3nc(CCCc4ccccc4)no3)cn2)ccc1F | 7 | -3
Cc1c(C(C)NC(=O)N(C)Cc2nccs2)oc2ccc(F)cc12 (configuration not stated) | 3 | 1
Cc1ncc([N+](=O)[O-])n1CCN1C(=O)[C@H]2C[C@H]2C1=O | -8 | -16
COc1cc(C=C2N=C(c3ccc(F)cc3)OC2=O)cc(OC)c1OC | -3 | -5
COc1ccccc1-n1nc(CC(C)C)nc1CCc1cnn(C)c1 | -1 | -3
CCCCN(C)CCNc1ncnc2nc[nH]c12 | 1 | 1
CN(C)c1cccc(C(=O)Nc2cc(C(F)(F)F)ccc2-n2ccnc2)c1 | 1 | 0
CC1(c2ccco2)NC(=O)N(CC(=O)Nc2cccc(Cl)c2Cl)C1=O (configuration not stated) | 7 | 10
CNc1nc2cnc(-c3cccc(C(=O)NCCN(C)C)c3)cc2n1-c1ccccc1 | 3 | -8
Cc1ccnc(SCC(=O)NCc2ccccc2Sc2ccccc2CO)n1 | 10 | 6
Cc1onc(-c2ccccc2Cl)c1C(=O)NCc1ccccc1 | 5 | 7
CCN(CC)c1ncccc1CNC(=O)c1c(C)noc1C | 10 | 8
Cc1ccc(C)c(NC(=O)Cn2c(-c3nnc(C(C)C)o3)cc3ccccc32)c1 | 6 | 4
CC(C)CCOP(=O)(c1ccc(N(C)C)cc1)C(O)C(C)C (configuration not stated) | 0 | 3
Cc1ccc(NC(=O)N(CC(=O)N2CCc3sccc3C2COc2ccc(F)cc2)CC2CCCO2)cc1 (configuration not stated) | -1 | 1
Cc1ccc(Nc2ccc(NC(=O)C3CCCC3)cc2)nn1 | -13 | -20
Cc1csc(N2CCN(Cc3nnnn3C3CC3)CC2C)n1 (configuration not stated) | -3 | -7
O=S(=O)(NC1CCN(C2CCc3c(F)cccc32)CC1)c1ccc(F)cc1 (configuration not stated) | 6 | 7
CC(Cc1ccncc1)NC(=O)CSCc1ccccc1Cl (configuration not stated) | 7 | 0
CCN(CC)C(=O)N1CCOC(c2ccc(Cl)c(Cl)c2)C1 (configuration not stated) | 5 | 3
COc1ccc(CN(CCc2c[nH]c3ccccc23)C(=O)CN(C(=O)COc2ccccc2)C2CC2)cc1 | 14 | 12
Cc1nn(CC(C)C(=O)Nc2ccccn2)c(C)c1C (configuration not stated) | -4 | -6
O=C(CN1CCC2CCCCC2C1)Nc1ccnn1C1CCCC1 (configuration not stated) | 12 | 10
CN1CCCN(S(=O)(=O)c2sc3c(c2C(=O)O)CCNC3)CC1 | 0 | -1
CCCC(=O)N1CCC1(C)C(=O)N1Cc2ccccc2C1 (configuration not stated) | 6 | 3
O=C(CSc1ncn[nH]1)N1N=C(c2cccs2)CC1c1cccs1 (configuration not stated) | 10 | 9
Cn1cc(-c2csc(C(O)c3ccc(F)c(F)c3)n2)cn1 (configuration not stated) | 6 | 4
COC(=O)c1cccc(NC(=O)N2CCC(Cc3ccc(C(C)(C)C)cc3)CC2)c1 | 1 | 6
COc1cc(OC)cc(C2c3c(n[nH]c3-c3cccs3)OC(=N)C2C#N)c1 (configuration not stated) | 10 | 12

(listing goes on)
SMILES | NPYLR7 agonist | NPYLR7 agonist max-min
COCCCn1c(C)c(C)n2c3c(=O)n(C)c(=O)n(C)c3nc12 | 3 | 1
O=C(NCCc1ccccc1)C1CCCN(S(=O)(=O)c2ccc(F)cc2)C1 (configuration not stated) | -1 | -1
CC(C)C1CN(C(=O)CCc2cc(=O)[nH]o2)CCCN1Cc1ccc(F)cc1 (configuration not stated) | 3 | 0
CCCCCSCC(F)(F)C(F)F | -16 | -23
CC(C)C1=NN2C(=N)/C(=C/c3ccc([N+](=O)[O-])cc3)C(=O)N=C2S1 | 0 | -2
CCCCn1c(C2CC(=O)N(c3ccccc3OCC)C2)nc2ccccc21 (configuration not stated) | -2 | 33
CCc1cccc2c(C(CC(=O)N3CCN(c4ccc([N+](=O)[O-])cc4)CC3)c3cccc([N+](=O)[O-])c3)c[nH]c12 (configuration not stated) | -5 | 1
COc1cc(C(=O)NCc2nnc(SCC(=O)Nc3nccs3)n2-c2ccc(F)cc2)cc(OC)c1OC | -6 | 7
COc1ccc2nc(C)cc(OCC(=O)Nc3cc(C)cc(C)c3)c2c1 | 4 | 2
CC(C)CC(=O)Nc1ccnn1C1CCN(Cc2ccc(Oc3ncccn3)cc2)CC1 | 2 | 0
CC(C)Nc1ncc(C(=O)N2CCCC(Nc3ccc4c(c3)OCO4)C2)cn1 (configuration not stated) | 8 | 6
Cc1cnn(CC2CCN(C(=O)C3CC4(CCNCC4)CN3)CC2)c1 (configuration not stated) | 19 | 6
CCN(CC(=O)NC(C)C)C(=O)C=Cc1cc(C)n(-c2cc(C)on2)c1C | -4 | -4
O=C(Nc1ccc(-c2cscn2)cc1)C1CCCN(C(=O)c2cccs2)C1 (configuration not stated) | 10&18 | 1&2
O=C(c1ccc2cc[nH]c2c1)N1CCC2(CCCN(Cc3cccc(F)c3F)C2)C1 (configuration not stated) | 12 | 9
Fc1ccccc1Nc1nc2ccccc2n2nnnc12 | 14 | 5

Ordered by SMILES length (largest number first): three of the compounds above
SMILES | NPYLR7 agonist | NPYLR7 agonist max-min
O=C(NNC(=O)c1cc(Cl)ccc1O)c1ccc(S(=O)(=O)NCc2ccco2)cc1 | -4 | -3
Cc1onc(-c2ccccc2Cl)c1C(=O)NCc1ccccc1 | 5 | 7
N#CC(=Cc1ccsc1)C(=O)NCc1ccco1 | 3 | 2
